A488 fluor: compound autofluorescence in A488 spectral region. compound autofluorescence, A488 spectral region, dye equivalency; active compounds read high. max dye equivalency, M. actives 0.1% (n = 59,000). AID 591; active = above 10 nM dye equivalent; inconclusive = 1 to 10 nM; inactive = 1 nM or less; about half of its hits are not listed in these tables;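 further: highest value over a series up to 38 µM; compound alone in buffer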
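Compound autofluorescence was read in 100 mM Tris pH 8.0 after 15 min at room temperature, ex 480 nm/em 540 nm. Intensities were converted to A488 dye-equivalent concentration using an on-plate six-point A488 standard curve.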
Resorufin autofl: resorufin region autofluorescence | Compound fluorescence, resorufin region 547/598 nm, buffer; active compounds read high | max dye-equivalent concentration, M | actives 0.04% (n = 59,000); active = above 10 nM dye equivalent; inconclusive = 1 to 10 nM; inactive = 1 nM or less; a few of its hits are not listed in these tables; further: highest value over a series up to 38 µM
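Intrinsic fluorescence profiled in the resorufin window (ex 547 nm, em 598 nm) after 15 min at room temperature in pH 8.0 Tris buffer (100 mM); responses normalized against a six-point resorufin standard series as dye-equivalent concentration.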
TSHR ag: TSH receptor (human) agonism; HEK293-CNG-TSHR cells (CNG channel as cAMP sensor), membrane potential dye, cAMP; AID 926; Potency, µM (highest dose often 57.1 µM), without a hit: at the highest dose activation, most hits filed as activators; actives 0.48% (n = 73,000); P16473; active = well fitted activation curve of enough size with the parental cells flat; inconclusive = any curve in the parental cells; inactive = parental cells flat and receptor cells flat or falling; further: potency means the concentration at half of the fitted maximal effect; % of control where 0% means no effect; weak receptor curves with flat parental cells got no call and are not listed
Target sequence (P16473 whole entry, looked up): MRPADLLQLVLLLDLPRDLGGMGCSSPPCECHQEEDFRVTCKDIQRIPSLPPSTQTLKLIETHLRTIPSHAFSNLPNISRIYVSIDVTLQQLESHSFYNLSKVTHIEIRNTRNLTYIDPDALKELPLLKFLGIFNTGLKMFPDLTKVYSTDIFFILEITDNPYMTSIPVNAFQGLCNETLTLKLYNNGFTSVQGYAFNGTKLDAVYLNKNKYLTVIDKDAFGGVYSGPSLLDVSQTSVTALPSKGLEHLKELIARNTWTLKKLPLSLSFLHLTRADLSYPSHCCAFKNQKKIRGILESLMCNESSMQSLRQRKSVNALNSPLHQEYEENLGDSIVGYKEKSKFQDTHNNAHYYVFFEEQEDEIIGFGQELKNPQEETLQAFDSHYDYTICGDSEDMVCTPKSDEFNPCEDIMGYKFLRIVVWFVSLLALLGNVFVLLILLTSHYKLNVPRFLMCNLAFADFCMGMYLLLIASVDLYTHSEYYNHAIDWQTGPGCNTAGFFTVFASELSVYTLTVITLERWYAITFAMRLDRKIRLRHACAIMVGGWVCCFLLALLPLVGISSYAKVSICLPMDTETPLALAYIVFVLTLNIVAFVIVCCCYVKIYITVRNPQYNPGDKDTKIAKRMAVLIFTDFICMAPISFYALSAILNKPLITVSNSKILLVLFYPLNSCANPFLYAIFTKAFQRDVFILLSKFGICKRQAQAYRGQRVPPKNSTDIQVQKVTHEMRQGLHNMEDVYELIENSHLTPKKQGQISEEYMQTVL
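cAMP rise detected as CNG-channel membrane depolarization by fluorescent dye (emission 590 nm), 30 min after compound, following 60 min dye loading containing 100 uM RO 20-1724 at room temperature. Cells: TSHR/CNG HEK 293, with parental CNG HEK 293 as control.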
AID923: qHTS Assay for Allosteric/Competitive Inhibitors of Caspase-1: Spectroscopic Profiling in AFC Spectral Region. actives 1.1% (n = 75,000). compound fluorescence, AFC spectral region (405/520 nm); almost no hit is shown here. AID 923, 2007. Potency, µM (top dose mostly 57.5 µM), without a hit: at the top dose fluorescence increase, most hits filed as activators; active means well fitted activation curve with a large enough effect; inconclusive means small, poorly fitted or top-dose-only effect;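 further: potency means the concentration at half of the fitted maximal effect; 0% is about no effect; scaled to a free AFC standard on each plate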
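Titrations up to 57 uM read every 20 sec for 3 min (405/520 nm) with 50 nM caspase 1 and 5 uM Ac-WEHD-AFC, pH 7.5 HEPES buffer. Fluorescence-vs-time intercept gave baseline, scaled against on-plate AFC standard.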
A647 fluor: compound fluoresces in the A647 spectral region; AID 592; 59,000 tested, under 10 active; Compound fluorescence, A647 channel (570/671 nm), Tris buffer; max dye-equivalent concentration, M; active means above 1 µM dye equivalent; inconclusive means 0.1 to 1 µM; inactive means 0.1 µM or less;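 further: values scaled relative to a standard on each plate; highest value over a series up to 38 µM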
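Tris 100 mM pH 8.0; cpd + A647 stds pin-transferred; 15 min RT; CCD imager, ex 570/em 671. Output = A647-equivalent conc. per cpd conc.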
The depositor's hits bear a star; i = inactive; ? = inconclusive; . = not tested or not shown; & = joins results of further samples; [ ] = remark or other dose.

#	mol	A488 fluor	Resorufin autofl	TSHR ag	AID923	A647 fluor
1	COc1nc(N(c2ccccc2)c2ccccc2)nc(-n2ccnc2)n1	i	i	?	0.4%	2.9e-09
2	CCOC(=O)N1CCN(S(=O)(=O)c2cc(Br)cc3c2N(C(C)=O)C(C)C3)CC1 (centres undefined)	i	i	3%[11.4 µM]	-0.8%	1.1e-08
3	CCOC(=O)c1nnc2cc(-c3ccccc3)nn2c1C	.	.	-11%	0.0%	.
4	Cc1cc2cc(CN(CCCO)S(=O)(=O)c3cccc4nsnc34)c(=O)[nH]c2cc1C	i	i	-14%	-0.1%	1e-09
5	O=C(NCc1cccnc1)c1cccc2c1C(=O)N(C1CCCCC1)C2	i	i	.	-0.9%	3.5e-08
6	CC1=C(C)C(=O)C(CCCCC#CCCCC#CCO)=C(C)C1=O	i	i	?	-2.1%	1.3e-09&1e-09
7	CN(CC(=O)NCc1ccccn1)S(=O)(=O)c1ccc(Cl)cc1	.	.	-3%	1.4%	.
8	O=S(=O)(NC1CCN(Cc2ccccc2)CC1)c1cccc(S(=O)(=O)N2CCOCC2)c1	i	i	-1%	0.1%	1e-09
9	CC1C2C(C)N(C)C(=O)N(C)C2N(C)C(=O)N1C (centres undefined)	i	i	-1%	-0.1%	1e-09
10	C=C(C)Cn1c(Sc2nc3ccccc3[nH]2)nc2c1c(=O)[nH]c(=O)n2C	i	i	8%	-0.1%	3.6e-08
11	O=C(c1ccncc1)N1CCN(C(=O)c2cccc3ccccc23)CC1	.	.	-2%	-0.8%	.
12	CCC(=O)Nc1ccc(NC(=O)CN2CCCC(C)C2)c(Cl)c1 (centres undefined)	i	i	18%	-0.5%	1e-09

Next section:
#	mol	A488 fluor	Resorufin autofl	TSHR ag	AID923	A647 fluor
13	O=c1[nH]c(CN(CCO)CCO)nc2c1C1(CCCCC1)Cc1ccccc1-2	i	i	.	.	2.3e-08
14	COc1ccc(-n2c(Cc3cccn3C)nnc2SCC(=O)Nc2ccc(C)cc2C)cc1	.	.	?	-2.0%	.
15	CN(CCc1ccccn1)C(=O)CCNC(=O)Cn1cnc2ccccc2c1=O	i	i	0%	-0.4%	7e-09
16	COc1nc(OC)nc(N2CCC(C(=O)NCC3CCCCC3)CC2)n1	i	i	22%	0.9%	1e-08
17	CCn1nc(NC(=O)c2cccnc2)c2cc3ccccc3nc21	i	i	.	.	4.1e-08
18	CCCc1cc(=O)oc2cc(OCC(=O)N(C)C)c(Cl)cc12	i	i	3%	0.3%	1.7e-08
19	CC1CCN(C(=O)CSc2nnc(-c3cc4ccccc4cc3O)n2Cc2ccco2)CC1	i	i	25µM*	-1.0%	2.9e-08
20	O=C(NC1CCCCCC1)C1CC(=O)N(Cc2ccccc2)C1 (centres undefined)	i	i	4%	-0.9%	8.6e-09
21	CCC(=O)Nc1c2c(nc3c1CCC3)CCCC2	i	i	6%	3.5%	1.2e-09
22	O=c1[nH]c2cc3c(cc2cc1C(c1nnnn1C1CCCC1)N1CCSCC1)OCCO3 (centres undefined)	i	i	.	0.9%	7.2e-09
23	COc1ccc(N2CCn3c2nc2c3c(=O)n(CCCc3ccccc3)c(=O)n2C)cc1	i	i	-15%	-2.0%	1e-09
24	C=CCn1c(NCc2ccc3c(c2)OCO3)nc2ccccc21	i	i	2%	0.7%	1e-09

(next part)
#	mol	A488 fluor	Resorufin autofl	TSHR ag	AID923	A647 fluor
25	CCOC(=O)N1CCN(Cc2nc3c(c(=O)n(C)c(=O)n3C)n2Cc2cccc3ccccc23)CC1	i	i	.	0.0%	4.2e-08
26	CC1CC(=O)N(Cc2ccccc2)c2ccccc2N1C=O (centres undefined)	i	i	-2%[11.4 µM]	-1.0%	1e-09
27	C=C1CC[C@H](O)C/C1=C/C=C1\CCC[C@]2(C)[C@H]1CC[C@H]2[C@@H](C)/C=C\[C@@H](C)C(C)C	i	i	?	-0.7%[25.7 µM]	3.9e-08
28	CCOC(=O)c1c(N)sc2c1C1CCN2CC1	i	i	9%	-1.4%	2e-08
29	COc1ccc(OC)c(NC(=O)C2CCCN2C(=O)C2CCC(C)CC2)c1 (centres undefined)	.	.	22%	3.7%	.
30	Cn1c(=O)[nH]c(=O)c2c1nc(N1CCOCC1)n2CCCSc1ncccn1	i	i	3%	-0.9%	1e-08
31	CC1CCCN(C(=O)CSc2nnc(-c3c[nH]c4ccccc34)o2)C1 (centres undefined)	i	i	.	0.1%	9.2e-09
32	COc1ccc(C(=O)NCCc2c[nH]c3ccccc23)cc1S(=O)(=O)N1CCOCC1	i	i	-4%	2.8%	4.2e-09
33	COc1ccc(CC(=O)NC2CCN(Cc3nnnn3C(C)(C)C)CC2)cc1OC	i	i	-3%	-1.8%	1.2e-08
34	CCOc1ccccc1OCc1nn2c(COc3ccccc3)nnc2s1	i	i	?	-1.2%	3.5e-08
35	CCC[C@@H]1C[C@@]1(CCC)C(NC(=O)OCc1ccccc1)c1ccc(-c2ccccc2)cc1 (some centres undefined)	.	.	-11%	-2.0%	.
36	Cc1cc(-c2[nH]nc3c2C(c2ccsc2)C(C#N)=C(N)O3)c(C)s1 (centres undefined)	i	i	.	-1.2%	1.2e-08

(list continues)
#	mol	A488 fluor	Resorufin autofl	TSHR ag	AID923	A647 fluor
37	COC(=O)[C@@]1(Cc2ccc(OC)cc2)[C@H]2c3cc(C(=O)N(C)C)n(Cc4ccc(C)c(F)c4F)c3C[C@H]2CN1C(=O)c1ccccc1	.	.	?	1.5%	.
38	COc1ccc(C(=O)Oc2cccnc2)cc1OC	i	i	5%	-0.2%	4.8e-08
39	O=C(Nc1ccc2ccccc2c1)N1CCN(c2ncccc2C(F)(F)F)CC1	i	i	2%	-0.4%	5.5e-09
40	COC(=O)C1C2C=CC3(CN(CCc4ccccc4)C(=O)C13)O2 (centres undefined)	i	i	-5%	0.3%	2.2e-08
41	O=C(NCCN1CCCCC1)c1ccc(I)cc1	.	.	8%	2.3%	.
42	CC1(C)C(c2ccccc2)=NC(c2ccccc2)N1O (centres undefined)	.	.	-2%	-0.4%	.
43	COc1cccc(-n2c(CNC(=O)OC(C)(C)C)n[nH]c2=S)c1	i	i	1%	2.1%	3.8e-09
44	CCCCOc1cccc(NC(=O)CSc2nccn2C)c1	.	.	8%[11.4 µM]	0.5%	.
45	O=C(OCc1cc2ccccc2[nH]c1=O)C1CCCO1 (centres undefined)	i	i	0%	2.0%	1e-09
46	CSc1nsc(SC)c1NC(=O)OCC1CCCO1 (centres undefined)	i	i	0%	-0.2%	8.4e-09
47	CCOC(=O)Nc1ccc2c(c1)N(C(=O)N(C)C)c1ccccc1CC2	.	.	?	-0.8%	.
48	Cc1cccc2cc(C(c3nnnn3C(C)(C)C)N3CCN(C(=O)c4ccco4)CC3)c(=O)[nH]c12 (centres undefined)	i	i	-3%	0.3%	2.7e-09

Continuation:
#	mol	A488 fluor	Resorufin autofl	TSHR ag	AID923	A647 fluor
49	CC(C)COC(=O)NCC12C=CC(O1)C1C(=O)N(c3ccc(Cl)cc3)C(=O)C12 (centres undefined)	i	i	?	1.2%	3.5e-08
50	Cc1csc(NC(=O)CCNS(=O)(=O)c2ccc3c(c2)c(=O)n(C)c(=O)n3C)n1	i	i	6%	1.1%	8.1e-09
51	COc1ccc(N2C(=O)CC(NCc3cccs3)C2=O)cc1 (centres undefined)	i	i	-3%	-1.0%	1e-09
52	CN(CCCNC(=O)c1cccc(N2CCCC2=O)c1)c1ccccc1	i	i	-2%	2.7%	1e-09
53	CCCCCCCCCCCCCCCC(=O)NC[C@@H](COP(=O)([O-])OCC[N+](C)(C)C)OCC	i	i	.	-2.2%	1e-09
54	CNc1oc(C)nc1S(=O)(=O)c1ccccc1	.	.	1%	1.6%	.
55	COc1cc(-c2nnc3sc(Cc4ccccc4)nn23)cc(OC)c1OC	i	i	19%	2.4%	3.2e-08
56	CC(C)N=C(NC#N)SCc1ccccc1F	i	i	9%	-0.3%	1e-09
57	O=C(c1cc(-c2cccc(O)c2)on1)N1CCCCC1	.	.	?	1.5%	.
58	CC(C)c1cc(C(=O)N2CCN(C(c3ccccc3)c3ccccc3)CC2)no1	i	i	17%	-0.3%	1.1e-08
59	CC(Sc1ccc2nnc(-c3ccc(F)cc3)n2n1)C(=O)O (centres undefined)	.	.	8%	0.6%	.
60	COc1ccc(N2CC(C(=O)OCC(=O)c3cccc(OC)c3)CC2=O)cc1 (centres undefined)	i	i	4%	2.3%	4.4e-09

Other entries follow:
#	mol	A488 fluor	Resorufin autofl	TSHR ag	AID923	A647 fluor
61	CCOC(=O)c1ccc(N2CC(O)=C(c3nc4ccccc4c(=O)[nH]3)C2=N)cc1	i	i	.	.	3.8e-09
62	CCOc1cc2c3c(c1)C1(OCCO1)C(=O)N3C(C)(C)CC2C (centres undefined)	i	i	8%	2.3%	1.2e-09
63	Cc1ccnc(NC(=O)CSc2cc(=O)n(C)c3ccccc23)c1	i	i	4%[11.4 µM]	-0.4%	1.2e-08
64	CCCC(=O)NC(C)c1nc2ccccc2n1CC (centres undefined)	.	.	5%	0.7%	.
65	COc1ccc(C(c2nnnn2Cc2ccc(F)cc2)N2CCN(c3ccccc3)CC2)cc1 (centres undefined)	i	i	.	-2.9%	1.2e-08
66	COCCNC(C)C(=O)C12CC3CC(CC(C3)C1)C2 (centres undefined)	i	i	9%	-1.3%	2.7e-08
67	O=C(O)c1ccc(S(=O)(=O)c2ccc3c(c2)C(=O)N(CC2CCCO2)C3=O)cc1 (centres undefined)	.	.	?	2.8%	.
68	CC(C)CN1CCC2(CC1)CCN(C(=O)c1cccc(F)c1)CC2	i	i	2%	-0.5%	2.7e-09
69	CC(C)NC(=O)N1CCCC2(CCN(C(=O)c3csnn3)CC2)C1	i	i	1%	1.7%	5.7e-09
70	Cc1ccc(NCc2nnc(SCC(=O)N3CCc4ccccc43)n2C)cc1	i	i	-6%	0.2%	1.9e-08
71	CCOc1ccc(NC2=NC(C(=O)NCc3ccccc3)CC(=O)N2)cc1 (centres undefined)	i	i	-2%	0.1%	1e-09
72	CC1C=CCC2C(=O)N(c3cccc(C(=O)N4CCCCCC4)c3)C(=O)C12 (centres undefined)	i	i	-1%[11.4 µM]	0.8%	3.3e-08

Single records, from the list above. Order of values: A488 fluor	Resorufin autofl	TSHR ag	AID923	A647 fluor
Cc1ccc(NCc2nnc(SCC(=O)N3CCc4ccccc43)n2C)cc1 in the list: i	i	-6%	0.2%	1.9e-08
CCOC(=O)c1ccc(N2CC(O)=C(c3nc4ccccc4c(=O)[nH]3)C2=N)cc1 in the list: i	i	.	.	3.8e-09
CCOc1ccc(NC2=NC(C(=O)NCc3ccccc3)CC(=O)N2)cc1 (centres undefined) in the list: i	i	-2%	0.1%	1e-09
O=C(O)c1ccc(S(=O)(=O)c2ccc3c(c2)C(=O)N(CC2CCCO2)C3=O)cc1 (centres undefined) in the list: .	.	?	2.8%	.
CC1C=CCC2C(=O)N(c3cccc(C(=O)N4CCCCCC4)c3)C(=O)C12 (centres undefined) in the list: i	i	-1%[11.4 µM]	0.8%	3.3e-08

Next entries follow:
#	mol	A488 fluor	Resorufin autofl	TSHR ag	AID923	A647 fluor
73	CCC(CC)C(=O)Nc1c2c(nn1-c1ccc(OC)cc1)CS(=O)C2 (centres undefined)	i	i	1%	0.4%	9.7e-09
74	Cc1cc(C(=O)CCC(=O)N2CCN(S(=O)(=O)c3cccs3)CC2)c(C)s1	i	i	?	0.4%	1e-09
75	CCn1c(=O)cc(SCC(=O)NCCCN2CCN(c3ccc(F)cc3)CC2)c2ccccc21	i	i	-26%	1.5%	3.3e-09
76	Cc1ccc(SC(C)C(=O)N2CCCC2)cc1 (centres undefined)	i	i	6%	0.4%	1e-09
77	CCCOP(=O)(c1ccc(N(C)C)cc1)C(O)c1cc(OC)c(OC)c(OC)c1 (centres undefined)	i	i	2%	0.7%	2.9e-08
78	CCC(=O)NC(=Nc1nc2ccccc2s1)NC(=O)CC	i	i	?	2.6%	4.2e-09
79	Cn1c(C(=O)OCC(=O)NCc2cccs2)cc2sccc21	i	i	5%	0.0%	5.7e-09

Screens as filed in PubChem.

A portion of the library; the hit share may differ from the screen's.
